# KCNQ2 enhance = potentiators of rat KCNQ2 potassium channel; B-score at 10 µM; CHO-K1 KCNQ2, FluxOR thallium flux fluorescence; hits give high values; AID 2239; 310,000 compounds, 0.54% hits;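 active = fluorescence ratio B-score at least 3 SD of library B-scores, with initial fluorescence B-score within 3 SD, cut at about 5.3 in these data; same plate scores as AID 2156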;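 also: B-score of peak minus minimum over baseline fluorescence ratio after K+ and Tl+ stimulus; positive B-score means potentiation of KCNQ2 with more thallium influx and brighter signal; only the inactives scoring about 0 or higher are listed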
# Target sequence (O88943 whole entry, looked up): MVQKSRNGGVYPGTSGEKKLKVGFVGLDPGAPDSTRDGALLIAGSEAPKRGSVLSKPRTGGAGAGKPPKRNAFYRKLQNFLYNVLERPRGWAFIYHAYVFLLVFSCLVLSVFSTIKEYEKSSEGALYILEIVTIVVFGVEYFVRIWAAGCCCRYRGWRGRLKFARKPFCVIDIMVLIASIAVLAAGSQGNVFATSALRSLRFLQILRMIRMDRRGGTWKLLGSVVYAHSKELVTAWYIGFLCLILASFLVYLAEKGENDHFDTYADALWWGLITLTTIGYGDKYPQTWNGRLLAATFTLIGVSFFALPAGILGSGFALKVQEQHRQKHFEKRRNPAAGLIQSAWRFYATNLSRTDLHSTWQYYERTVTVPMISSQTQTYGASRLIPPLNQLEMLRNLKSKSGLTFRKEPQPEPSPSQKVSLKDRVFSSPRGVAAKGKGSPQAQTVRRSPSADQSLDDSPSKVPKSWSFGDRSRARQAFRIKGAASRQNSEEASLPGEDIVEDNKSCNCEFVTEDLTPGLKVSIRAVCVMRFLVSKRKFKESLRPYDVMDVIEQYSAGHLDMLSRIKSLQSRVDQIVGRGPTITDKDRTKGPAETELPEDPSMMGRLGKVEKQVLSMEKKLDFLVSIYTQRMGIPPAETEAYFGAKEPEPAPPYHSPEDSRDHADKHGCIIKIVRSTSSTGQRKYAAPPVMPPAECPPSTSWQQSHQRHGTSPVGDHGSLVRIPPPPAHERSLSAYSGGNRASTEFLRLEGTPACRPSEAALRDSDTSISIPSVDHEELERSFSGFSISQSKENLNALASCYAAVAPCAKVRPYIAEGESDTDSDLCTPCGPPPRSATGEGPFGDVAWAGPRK
# KCNQ2 enhance baseline = recorded beside KCNQ2 enhance, whose call it bears; B-score; compound at 10 µM; measured here: initial fluorescence intensity artifact check;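 brightness before thallium and not channel activity; 0 = typical well and far values either way flag optical interference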
# * marks the source's active call; other numbers are inactive results. These rows are one share of the data, so the mix of outcomes need not match the whole.
SMILES,KCNQ2 enhance,KCNQ2 enhance baseline
CCC(=O)Nc1ccc(S(=O)(=O)Nc2nccs2)cc1,0.82,-0.94
O=C(NCc1ccco1)C1CCCN(S(=O)(=O)c2ccc(-n3cnnn3)cc2)C1 (configuration not stated),0.4,-0.81
COc1ccc(NC(=O)CN(C)C(=O)c2cc3c(cc2Cl)N2CCCCCC2=NS3(=O)=O)cc1,1,3
Cc1ccc(CN2CCN(Cc3cccn3-c3ccccn3)CC2CCO)o1 (configuration not stated),0.14,-0.19
CNC(=O)CN(c1ccc2c(c1)OCCO2)S(C)(=O)=O,1.7,0.16
COc1ccc(OC)c(C2CC(=O)N3CN(c4cccc(Cl)c4)CSC3=C2C#N)c1 (configuration not stated),1.3,-1
COC(=O)CSc1nnc(CNC(=O)c2ccccc2F)n1-c1ccccc1,0.62,-1.4
O=C(CCSCc1cccc(Cl)c1)NC1CCCC1,0.62,-0.82
Oc1cc(O)c2c(c1)O[C@H](c1ccc(O)c(O)c1)[C@@H](O)C2,1.1,-0.05
O=C(NCc1ccccc1)c1c(F)c(F)c(F)c(F)c1F,2.1,-0.46
O=C(NNc1nc(-c2ccccc2)cs1)c1ccco1,0.37,0.36
Cc1nnc2n(-c3ccccc3)c(=O)c3c4c(sc3n12)COC(C)(C)C4,1.6,-0.96
CC(C)CCNC(=O)c1ccc2c(c1)ncn2C1CCCCC1,1.2,0.67
O=S(=O)(c1ccc(F)cc1)N1CCN(c2ncccn2)CC1,0.75,-0.44
CC(C)c1nc2sc3c(=O)n(N)cnc3c2c2c1COC(C)(C)C2,0.04,0
Cc1ccc(C2=NS(=O)(=O)N(C)C(C(=O)NC3CCCC3)=C2)cc1,0.36,0.36
Cc1cccc(-c2nnc(SCCOc3ccc4c(C)cc(=O)oc4c3)o2)c1,0.01,0.59
O=c1[nH]cnc2c1c(-c1ccccc1)cn2-c1ccccc1,1.1,-0.33
NS(=O)(=O)c1ccc(CCNC(=O)c2cc3ccccc3oc2=O)cc1,0.14,0.4
COc1cc(/C=N/NC(=O)Cc2c[nH]c3ccccc23)cc(OC)c1OC,0.09,-1.6
O=C(CSc1ccccc1C(=O)O)Nc1cccc(C(=O)O)c1,0.52,-0.02
Cc1ccccc1NC(=O)Cn1cnc2c(oc3nc4c(cc32)COC(C)(C)C4)c1=O,1.5,-1
O=C(COc1ccc(Cl)cc1)NNC(=O)c1cccnc1,0.22,-2.7
CCOc1ccc(NC(=O)CN(C)C(=O)c2ccc(OCc3ccccc3)c(OC)c2)cc1OCC,0.07,-0.52
CC(NC(=O)c1ccco1)C1CCCO1 (configuration not stated),1.2,1.3

# A few values from the results shown:
# O=C(NNc1nc(-c2ccccc2)cs1)c1ccco1 @ KCNQ2 enhance baseline: 0.36
# Cc1cccc(-c2nnc(SCCOc3ccc4c(C)cc(=O)oc4c3)o2)c1 @ KCNQ2 enhance baseline: 0.59
# Cc1ccc(CN2CCN(Cc3cccn3-c3ccccn3)CC2CCO)o1 (configuration not stated) @ KCNQ2 enhance: 0.14

# Other structures.
SMILES,KCNQ2 enhance,KCNQ2 enhance baseline
CNC(=O)c1c(NC(=O)c2ccc(S(=O)(=O)N3CCCCC3C)cc2)sc2c1CCN(C)C2 (configuration not stated),1.3,-0.01
CC1CCCCN1C(=O)CSc1nc(N)cc(=O)[nH]1 (configuration not stated),1.6,-1.6
CCN(CC)CCn1c2c(c(SCC(=O)Nc3nc4ccccc4s3)nc1=O)CCC2,0.05,0.2
COc1ccc(NC(=O)C(=O)c2cn(CC(=O)N3CCCC3)c3ccccc23)c(OC)c1,2.4,0.03
CC(=O)N1CCN(C(=O)c2cc(S(=O)(=O)NCc3ccccc3)ccc2C)CC1,1.2,-0.6
CCN1CCCC1CNC(=O)c1ccc(N2CCOCC2)c(NS(=O)(=O)c2ccc(OC)cc2)c1 (configuration not stated),0.23,-0.36
O=S(=O)(Nc1cnc2ccccc2c1)N1CCCCCC1,0.21,1.1
COc1ccc(OCc2cc(C(=O)NC(C)c3cnn(C)c3)no2)c(Cl)c1 (configuration not stated),0.13,-0.04
O=C(NNS(=O)(=O)c1ccc2ccccc2c1)c1cccs1,1.3,-0.01
CS(=O)(=O)N(CC(=O)Nc1ccc(S(=O)(=O)N2CCOCC2)cc1)c1ccccc1Br,0.08,0.59
CCCc1[nH][nH]c(=O)c1C(c1cccc(Cl)c1)C(C#N)C#N (configuration not stated),1.8,-0.1
Cn1/c(=N\NC(=O)C2CCCCC2)sc2ccccc21,9.9*,0.14*
CN(C)C(CNC(=O)c1cccc(NS(=O)(=O)c2ccc(Br)cc2)c1)c1ccco1 (configuration not stated),0.31,1.1
COc1ccc(OCCN2C(=O)c3ccccc3C2=O)cc1,0.46,-1.6
O=[N+]([O-])c1cccc(-c2ccc(C(=S)N3CCOCC3)o2)c1,1.3,1
COc1ccc(-c2nn(-c3ccccc3)cc2/C=C2/SC(=S)N(Cc3ccco3)C2=O)c(C)c1,0.04,1.8
Cc1ccc(Nc2nc(N)nc(CN3CCN(Cc4ccccc4)CC3)n2)cc1Cl,0.15,0.29
CCOC(=O)N1CCN(S(=O)(=O)c2ccc(C(=O)N(CCN(C)C)c3nc4ccc(CC)cc4s3)cc2)CC1,0.47,-0.7
COc1cc(C(=O)Nc2ccc(NC(=O)c3cccc(Cl)c3)nc2)cc(OC)c1OC,1.2,0.09
COc1cc(NC(=O)COC(=O)CCOc2ccc(C)cc2)cc(OC)c1,0.1,-0.09
CC(NS(=O)(=O)c1ccc(Br)s1)c1ccccc1 (configuration not stated),0.04,1.4
Brc1cccc(OCCOCCn2ccnc2)c1,0.02,0.53
CCOC(=O)N1CCC(N(C(=O)Nc2ccccc2)C(C)CC)CC1 (configuration not stated),0.42,-1.4
O=C(COC(=O)Cc1c[nH]c2ccccc12)Nc1c(Cl)cccc1C(F)(F)F,1.2,-0.32
COC(=O)c1ccccc1NC(=O)CSc1nnnn1C,0.46,0.57
# Continuation.
SMILES,KCNQ2 enhance,KCNQ2 enhance baseline
CCOC(=O)c1ccc2cccc(C)n2c1=O,0.14,0.32
Cc1ccccc1C(=O)OC(C)CN1CCN(C)CC1 (configuration not stated),0.78,-0.49
Cc1cc(C(=O)CS(=O)(=O)c2ccc(Cl)cc2)cc(C)c1O,0.28,-0.6
CCCCCC(=O)Nc1cccc(C2=NOC3(C2)C[C@@H](C(N)=O)N(C(=O)Cc2ccc([N+](=O)[O-])cc2)C3)c1 (some centres not stated),1.1,-0.83
COc1ccc(C(=O)NCc2nnc(SCC(=O)Nc3cccc(F)c3)o2)cc1,0.77,0.04
CN(C)CCCCCN(C)Cc1cc2ccccc2o1,2.6,-1.6
CC(=O)Oc1ccc(-c2cc3ccc(OC(C)=O)cc3oc2=O)cc1,0.07,-1.2
CCN(CC)c1nc2c(c(=O)[nH]c(=O)n2C)n1CCOc1ccccc1,1.3,-3.1
FC(F)(F)c1ccc(-n2cnc3ccccc32)nc1,0.63,1.1
O=C(NCc1nnc(SCC(=O)N2CCN(c3ccccc3)CC2)o1)c1ccco1,0.24,-0.68
O=C(O)c1cc(N2C(=O)C3C4C=CC(C4)C3C2=O)ccc1NCc1cccnc1 (configuration not stated),0.09,0.27
COc1ccc2oc(=Nc3cc(F)ccc3F)c(C(N)=O)cc2c1,0.92,1.9
Cc1nn(-c2ccccc2)c(C)c1C(=O)Nc1ccc(N2CCOCC2)cc1,0.75,-0.19
CC(C)CCn1c(=O)c2ccccc2n2c(CCC(=O)NC3CCN(Cc4ccccc4)CC3)nnc12,0.08,0.06
COc1ccccc1-c1nc(N)n[nH]1,1,-1.1
COc1cc(CNc2ncn[nH]2)cc(Br)c1OC,0.78,0.46
O=C(c1ccc(N2CCCC2=O)cc1)N1CCN(c2ccccc2F)CC1,0.73,0.01
Cc1cc(Cl)ccc1OCC(=O)Nc1cccnc1,0.47,-1.3
CCCCNC(=O)CSc1nc(N)c(C(=O)Nc2ccc(OC)cc2)s1,0.8,0.67
CCC(CC)c1nnc(NC(=O)CCc2ccccc2)s1,0.06,-0.42
CC(=O)N1CCN(C(=O)c2cc(S(=O)(=O)N3CCCCC3)ccc2Cl)CC1,0.02,0.16
CCOc1ccc(Nc2nc(Nc3ccc(O)cc3)nc(C)c2[N+](=O)[O-])cc1,0.52,0.07
O=C(NNC(=O)c1cccs1)c1ccc(F)cc1,0.1,-1.4
CCCCCCNc1c(C(=O)OCC)c(=O)[nH]c2ccccc12,1.7,-4.1
O=C(NCC(=O)N1CCN(C(=O)c2ccco2)CC1)c1ccccc1,1.2,2

# 3 records drawn at random from the list so far:
SMILES,KCNQ2 enhance,KCNQ2 enhance baseline
CC(=O)N1CCN(C(=O)c2cc(S(=O)(=O)N3CCCCC3)ccc2Cl)CC1,0.02,0.16
COc1ccccc1-c1nc(N)n[nH]1,1,-1.1
FC(F)(F)c1ccc(-n2cnc3ccccc32)nc1,0.63,1.1

# Next section
SMILES,KCNQ2 enhance,KCNQ2 enhance baseline
CCCCCN(C(=O)CN(C)Cc1ccc(OC)cc1OC)c1c(N)n(CCCC)c(=O)[nH]c1=O,0.33,0.37
Cc1nn(C)c(Cl)c1S(=O)(=O)N1CCC(CO)(CCc2ccccc2)CC1,1.4,-0.11
O=C(N/N=C\c1ccc(F)cc1)c1csnn1,2.1,-0.9
COc1ccc2c(=O)c(-c3nc(C)cs3)coc2c1,0.46,1.3
N#Cc1ccc(OCC(=O)N/N=C/C2CC=CCC2)cc1 (configuration not stated),0.07,-0.22
COC(=O)CSc1cc([N+](=O)[O-])cc2c1c(C1OCCO1)nn2-c1ccccc1,0.87,0.05
CC1CCC(NC(=O)CN2C(=O)COc3ccc(S(=O)(=O)N4CCCC4)cc32)CC1 (configuration not stated),2.1,1.7
COc1ccc(OC)c(CN2CCCC(CO)C2)c1 (configuration not stated),0.8,-2.1
CN(C(=O)c1cnccn1)c1nnc(-c2cnccn2)s1,0.99,0.05
CSc1nc(C)cc(-n2cc(F)c(=O)[nH]c2=O)n1,0.05,-2.7
O=C1NC[C@@H](Cc2cccc3ccccc23)N(CCc2cc(C(F)(F)F)cc(C(F)(F)F)c2)C1=O,1.1,-0.25
Cc1sc2nc(CN3CCCC3)nc(N3CCN(S(=O)(=O)c4cccs4)CC3)c2c1C,0.65,0.02
COc1cccc(NC(=S)N(CCC(C)C)C(C)c2ccncc2)c1 (configuration not stated),2,1.1
COC(=O)C1CCN(C(=O)c2cc(OC)c(OC)c(OC)c2)CC1,1.6,-1.5
Cn1c(C(=O)NCCc2ccccc2)cc(=O)n(C)c1=O,1.1,-0.26
CCN(CC)C(=O)c1sc2nc(Cc3ccccc3)[nH]c(=O)c2c1C,0.84,0.08
O=C(Cc1ccc(S(=O)(=O)N2CCCCC2)s1)Nc1ccc(F)c(F)c1,0.04,0.04
Cc1cc(C)cc(NC(=O)c2cccc(C(=O)Nc3cc(C)cc(C)c3)n2)c1,1.9,-1.3
COCCNC(=O)C1CCCN(S(=O)(=O)c2c(C)noc2/C=C/c2cccs2)C1 (configuration not stated),0.12,-0.24
CC1CCCCC1NC(=O)C1CCN(c2c3c(nc4ncnn24)CCC3)CC1 (configuration not stated),0.68,-2.5
O=C(CSCc1ccccc1F)NCc1ccccc1,0.31,1.8
O=c1[nH]c(CSc2ncnc3sccc23)nc2cc(C(F)(F)F)ccc12,0.44,-1.1
Cc1cc(C)cc(NC(=O)c2ccccc2CC[N+](=O)[O-])c1,0.29,-1.4
Cn1c(=O)oc2cc(S(=O)(=O)CCC(=O)N3CCN(c4ccccc4)CC3)ccc21,0.76,0.65
COc1ccc(O)c(/C=N/N2CCOCC2)c1,2.7,-0.9
# Additional results:
SMILES,KCNQ2 enhance,KCNQ2 enhance baseline
CSc1ccccc1C(=O)Nc1cc([N+](=O)[O-])ccc1C,0.65,0.82
Cc1cc(=O)[nH]c2c1c(C)nn2-c1ccccc1,1,0.07
COc1cc(/C=C(\C#N)c2nc3ccc(C)cc3[nH]2)c([N+](=O)[O-])cc1OC,1.5,0.01
COc1ccc(OC)c(N(C(=O)c2snc(C(N)=O)c2N)C(C(=O)NCC2CCCO2)c2ccc3ncccc3c2)c1 (configuration not stated),1.2,-1.9
COCCNc1nc2nonc2nc1N(C)Cc1cccc2cnccc12,0.22,-0.01
O=C(/C=C/c1c(F)cccc1Cl)Nc1nc2ccccc2[nH]1,0.22,1.8
CCN1CCN(CCNC(=O)c2cc(Cl)c(NC(=O)C3=C(C)OCCS3)cc2OC)CC1,0.52,-0.38
C/C(=N\NS(C)(=O)=O)c1ccc(C)cc1,0.46,0.02
COc1ccc(N=C2NC(=O)/C(=C\c3ccco3)S2)cc1,0.02,0.08
NS(=O)(=O)c1ccc(O)c(NC(=O)c2ccc([N+](=O)[O-])cc2)c1,0.78,-0.39
Cc1ccc[n+](CC(=O)Nc2cc(C(F)(F)F)ccc2Cl)c1,1.7,-0.17
Cn1nccc1C(=O)Nc1nnc(C2CC2)s1,0.08,-0.59
COc1ccc(S(=O)(=O)N(C)c2ccc(C(=O)N3CCN(c4ccccc4)CC3)cc2)cc1OC,0.2,2
CSC1=C(C#N)C(c2ccc(Cl)cc2)C2=C(CC(C)(C)CC2=O)N1 (configuration not stated),0.31,-0.58
Fc1ccc(Nc2ncnc3sc4c(c23)CCC4)cc1,0.46,0.63
Cc1ccc(S(=O)(=O)N2CCCCC2)cc1NC(=O)Cn1ccc(C(F)(F)F)n1,0.69,-0.42
Cc1cc(C)nc(SCc2nc3ccccc3n2C)n1,1.7,-0.58

# Single records, as listed above:
# Cc1nnc2n(-c3ccccc3)c(=O)c3c4c(sc3n12)COC(C)(C)C4 is listed with KCNQ2 enhance = 1.6; KCNQ2 enhance baseline = -0.96
# FC(F)(F)c1ccc(-n2cnc3ccccc32)nc1 is listed with KCNQ2 enhance = 0.63; KCNQ2 enhance baseline = 1.1
# Cc1ccc(C2=NS(=O)(=O)N(C)C(C(=O)NC3CCCC3)=C2)cc1 is listed with KCNQ2 enhance = 0.36; KCNQ2 enhance baseline = 0.36
